# FPR binding – small-molecule ligands of human FPR – U937-FPR cells, fMLFK-FITC, flow cytometry, primary screen (AID 362); inhibition, %; hit rate 1% among 4,300; U937-FPR cells, fMLFK-FITC displacement, flow cytometry; stronger effect = higher value; test concentration not given here; most inactive calls were filed without a number and no value below 0 was filed;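 active means inhibition of labelled peptide binding to the formyl peptide receptor of at least 65%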;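 further: plate controls were buffer control wells for no effect and unlabeled fMLFF blocking peptide for full effect; higher means less cell fluorescence so more probe displaced; part of the set was picked by virtual screening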
# The depositor's hits bear a star; i = inactive. Some of the compounds tested; rates above refer to the full screens.
SMILES,FPR binding
COc1ccc(C2C(C#N)=C(N)N(c3ncn[nH]3)C3=C2C(=O)CC(C)(C)C3)c(OC)c1 (centres undefined),i
O=C(O)C1C2C=CC(C2=C(c2ccccc2)c2ccccc2)C1C(=O)Nc1ccccn1 (centres undefined),46
O=C1C2C3CCC(C3)C2C(=O)N1CN(Cc1ccccc1)CN1C(=O)C2C3CCC(C3)C2C1=O (centres undefined),10
COc1ccc(N2C(=O)C3C4C=CC(C3C2=O)C2C(=O)N(c3ccc(OC)cc3)C(=O)C42)cc1 (centres undefined),43
COC(=O)C1C(=O)C2=C(CC1C)NC(C)=C(C(=O)OC(C)C)C2c1ccc(Cl)cc1 (centres undefined),1
CCCCCCc1cc2c3c(c(=O)oc2cc1OCC(N)=O)CCC3,i
CCC(C)C(NS(=O)(=O)c1ccc(C)cc1)C(=O)NCC1CCCO1 (centres undefined),i
O=C(NC1(C(F)(F)F)C(=O)Nc2c1c(=O)[nH]c(=O)n2-c1ccc(F)cc1)c1cccc(Cl)c1 (centres undefined),22
CCCCOC(=O)C1=C(C)NC(=O)NC1c1ccc(OCC)cc1 (centres undefined),i
CCC(C)(C(=O)NC1CCCCC1)N(Cc1cccs1)C(=O)CC1NC(=O)NC1=O (centres undefined),i
COc1cc(C2NC(=O)NC(C)=C2C(=O)OCC(F)(F)F)ccc1O (centres undefined),i
O=C(CSc1nc2ccccc2c(=O)n1CC1CCC(C(=O)NCc2ccccc2)CC1)NCc1ccco1 (centres undefined),i
COc1ccc(C2C3=C(N=c4s/c(=C/c5c[nH]c6ccccc56)c(=O)n42)c2ccccc2CC3)cc1 (centres undefined),i
CC(C)CC(C(=O)OCC(=O)c1ccc(Cl)cc1)N1C(=O)c2ccccc2C1=O (centres undefined),i
CC(=O)N1CCc2cc(S(=O)(=O)NC(C(=O)Nc3ccc(C)cn3)C(C)C)ccc21 (centres undefined),i
COCCn1cc(C(=O)N2CCCC(C)C2)c2c3ccccc3n(C)c2c1=O (centres undefined),4
COc1cccc(N2C(=O)C3C(C2=O)C2C=CC3C23CC3)c1 (centres undefined),i
O=C(O)C1(c2ccc(O)cc2)CCCC1,i
COc1ccc(NS(=O)(=O)c2c(C(C)C)cc(C(C)C)cc2C(C)C)cc1,i
CCCc1c(C(=O)OCC)[nH]c2c1C(=O)CC(c1cccs1)C2 (centres undefined),6
CCOC(=O)C1=C(C)NC2=C(C(=O)C(C(=O)OC)C(C)C2)C1c1ccc(OC)c(Br)c1 (centres undefined),i
CCN(CC)CCCN1C(=O)C2C3C=CC(C2C1=O)C1C2C(=O)N(CCCN(CC)CC)C(=O)C2C31 (centres undefined),i
CCN(CC)Cc1c(O)ccc2c(=O)c(-c3ccccc3Cl)c(C(F)(F)F)oc12,14
CCCCC(C(=O)O)N1C(=O)c2cccc([N+](=O)[O-])c2C1=O (centres undefined),9
CCN1CCN(C(=O)c2cn(CC(C)C)c(=O)c3c2c2ccccc2n3C)CC1,i
SMILES,FPR binding
COc1ccc(Oc2c(C(F)(F)F)oc3c(CN(C)C)c(O)ccc3c2=O)cc1,11
COC(=O)C1C(=O)C2=C(CC1C)NC(C)=C(C(=O)OCCOC(C)C)C2c1ccc2c(c1)OCO2 (centres undefined),38
CCOC(=O)C1=C(C)NC2=C(C(=O)C(C(=O)OC)C(C)C2)C1c1ccc(OCc2ccccc2)cc1 (centres undefined),8
O=C(CSc1c2c(nc3ccccc13)CCCC2)Nc1ccc(F)c(Cl)c1,i
Cc1c(N(C(=O)c2ccccn2)C2(C(=O)NC3CCCCC3)CCCCC2)c(=O)n(-c2ccccc2)n1C,i
COCCCNC(=O)C1CCC(CNS(=O)(=O)c2ccc(F)cc2)CC1 (centres undefined),i
CCOc1ccc(C2C(C#N)=C(N)OC3=C2C(=O)CC(C)(C)C3)cc1 (centres undefined),15
COc1cccc(CN2CCCC(C(=O)N3CCCCC3)C2)c1OC (centres undefined),i
CCCc1cc2c(=O)c(-c3nc(C)cs3)coc2cc1OC(C)=O,i
CC1=C(C(=O)OCC(F)(F)F)C(c2ccc3c(c2)OCO3)NC(=O)N1 (centres undefined),i
CCCCCn1c(SCC(=O)NCc2ccccc2Cl)nc2cc(C(=O)N3CCC(C(N)=O)CC3)ccc2c1=O,9
CCc1cccc(NC(=O)C(NS(=O)(=O)c2ccc3c(c2)CCN3C(C)=O)C(C)C)c1 (centres undefined),i
CCCOCCOC(=O)C1=C(C)NC2=C(C(=O)C(C(=O)OC)C(C)C2)C1c1cccc(Cl)c1 (centres undefined),19
CC1CCCCN1c1ccc(N2C(=O)C3C4C=CC(C4)C3C2=O)cc1[N+](=O)[O-] (centres undefined),i
COC(=O)c1ccccc1NC(=O)CSc1nc2ccsc2c(=O)n1CCCCCC(=O)NCCc1ccccc1,2
Cc1c(OC(C)C(=O)OCC(C)C)ccc2c3c(c(=O)oc12)CCC3 (centres undefined),i
Cc1ccc(S(=O)(=O)N(Cc2ccc(Cl)cc2)CC2CCC(C(=O)O)CC2)cc1 (centres undefined),2
CCOC(=O)C(C(=O)Nc1ccccc1OC)C1CCCCC1 (centres undefined),i
CCOc1ccc(C2C3=C(CC(C)(C)CC3=O)Nc3nc4ccccc4n32)cc1OC (centres undefined),19
COc1ccc(CN(CC2CCC(C(=O)NO)CC2)S(=O)(=O)c2cccc(Cl)c2)cc1 (centres undefined),i
CCCS(=O)(=O)c1c(S(=O)(=O)CCC)c2cc(CC)ccn2c1C(=O)c1ccc(F)cc1,i
CCCS(=O)(=O)c1c(S(=O)(=O)CCC)c2cc(C(C)(C)C)ccn2c1C(=O)c1ccc(OC)c(OC)c1,0
CCNC(=O)c1cc2c(=O)n3ccccc3nc2n(C2CCCCC2)c1=N,i
CCOC(=O)C1=C(C)NC2=C(C(=O)C(C(=O)OC)C(C)C2)C1c1cc(OC)c(O)c([N+](=O)[O-])c1 (centres undefined),i
CC1(C)CC(=O)C2=C(C1)Nc1ncnn1C2c1cccc([N+](=O)[O-])c1 (centres undefined),i

# Ordered by SMILES length (rising): some entries from above
SMILES,FPR binding
CCOC(=O)C(C(=O)Nc1ccccc1OC)C1CCCCC1 (centres undefined),i
COc1cccc(CN2CCCC(C(=O)N3CCCCC3)C2)c1OC (centres undefined),i
CCCc1cc2c(=O)c(-c3nc(C)cs3)coc2cc1OC(C)=O,i
COCCCNC(=O)C1CCC(CNS(=O)(=O)c2ccc(F)cc2)CC1 (centres undefined),i
CCNC(=O)c1cc2c(=O)n3ccccc3nc2n(C2CCCCC2)c1=N,i
Cc1c(OC(C)C(=O)OCC(C)C)ccc2c3c(c(=O)oc12)CCC3 (centres undefined),i
CCOc1ccc(C2C(C#N)=C(N)OC3=C2C(=O)CC(C)(C)C3)cc1 (centres undefined),15
CC1=C(C(=O)OCC(F)(F)F)C(c2ccc3c(c2)OCO3)NC(=O)N1 (centres undefined),i
COc1ccc(Oc2c(C(F)(F)F)oc3c(CN(C)C)c(O)ccc3c2=O)cc1,11
CCOc1ccc(C2C3=C(CC(C)(C)CC3=O)Nc3nc4ccccc4n32)cc1OC (centres undefined),19
Cc1ccc(S(=O)(=O)N(Cc2ccc(Cl)cc2)CC2CCC(C(=O)O)CC2)cc1 (centres undefined),2
COc1ccc(CN(CC2CCC(C(=O)NO)CC2)S(=O)(=O)c2cccc(Cl)c2)cc1 (centres undefined),i
CC1CCCCN1c1ccc(N2C(=O)C3C4C=CC(C4)C3C2=O)cc1[N+](=O)[O-] (centres undefined),i
COC(=O)C1C(=O)C2=C(CC1C)NC(C)=C(C(=O)OCCOC(C)C)C2c1ccc2c(c1)OCO2 (centres undefined),38
CCCCCn1c(SCC(=O)NCc2ccccc2Cl)nc2cc(C(=O)N3CCC(C(N)=O)CC3)ccc2c1=O,9
CCOC(=O)C1=C(C)NC2=C(C(=O)C(C(=O)OC)C(C)C2)C1c1cc(OC)c(O)c([N+](=O)[O-])c1 (centres undefined),i

# Continuation.
SMILES,FPR binding
CCN(CC)CCOC(=O)c1ccc(NC2(c3nnnn3-c3c(C)cccc3C)CCCCC2)cc1,i
COc1cc(CCN2C(=O)c3cccc4cccc(c34)C2=O)c(S(=O)(=O)N2CCC(C)CC2)cc1OC,i
Cc1ccc(S(=O)(=O)NCC2CCC(C(=O)NCCC(C)C)CC2)cc1 (centres undefined),7
CC(C)CN(CC(C)C)S(=O)(=O)N1CCC(C(=O)O)CC1,i
O=C(Nc1ccccc1)c1ccc(Br)c(S(=O)(=O)NC2CCCCC2)c1,i
COc1ccccc1C1C2=C(CC(C)(C)CC2=O)Nc2nc(C(F)(F)F)nn21 (centres undefined),10
CCN1CCN(C(=O)C2CCC(CNS(=O)(=O)c3ccc(NC(C)=O)cc3)CC2)CC1 (centres undefined),i
CCOC(=O)COc1cc2oc(=O)c3c(c2cc1Cl)CCC3,i
CC(C)Cc1nn(-c2ccccc2)cc1/C=C1\CCC(C2CCCC2)C1=O (centres undefined),i
CCCCCc1c(C)c(C#N)c2nc3ccccc3n2c1-n1ccnc1C,3
COc1ccc(NC(=O)C(C(C)C)N2C(=O)c3ccccc3C2=O)c(OC)c1 (centres undefined),16
CC1CN(c2c3c(c(C#N)c4nc5ccccc5n24)CCC3)CC(C)O1 (centres undefined),i
O=C(CSc1nc2ccccc2c(=O)n1CC1CCC(C(=O)NCCc2ccccc2)CC1)NCCc1ccccc1 (centres undefined),i
O=C(NCc1ccco1)C1CCC(CNS(=O)(=O)c2ccc(F)cc2)CC1 (centres undefined),i
COc1ccc(OC)c(NC(=O)C(NS(=O)(=O)c2ccc3c(c2)CCCN3C(C)=O)C(C)C)c1 (centres undefined),i
COc1cc2c(cc1OC)C(C(=O)NC1CCCC(C)C1C)C(c1cccs1)N(C)C2=O (centres undefined),16
CCN(CC)C(=O)CSc1nc2ccsc2c(=O)n1CC1CCC(C(=O)O)CC1 (centres undefined),i
CC1=C(C(=O)OC2CCCCC2)C(c2ccc(O)cc2)NC(=O)N1 (centres undefined),i
CCC(C)OC(=O)C1=C(C)NC2=C(C(=O)C(C(=O)OC)C(C)C2)C1c1ccccc1Br (centres undefined),i
Cc1ccc(S(=O)(=O)N2CCCC(C(=O)N3CCCCC3)C2)cc1 (centres undefined),4
CCCCN(CC)CCNC(=O)c1cn(CC(C)C)c(=O)c2c1c1ccccc1n2C,i
Cc1sc2ncn(CC(=O)N3CCN(C4CCCCC4)CC3)c(=O)c2c1S(=O)(=O)N1CCC(C)CC1,23
CC(=O)N1CCCc2cc(S(=O)(=O)NC(C(=O)Nc3nc4ccc(C)cc4s3)C(C)C)ccc21 (centres undefined),i
CCOc1cc2c(c([N+](=O)[O-])c1)NC(c1ccc(Cl)cc1)C1CC=CC21 (centres undefined),20
CCOC(=O)c1cc2c(=O)n3ccccc3nc2n(CC(C)C)c1=NC(=O)c1ccc(C)c([N+](=O)[O-])c1,i
SMILES,FPR binding
Cc1ccc(S(=O)(=O)NCC2CCC(C(=O)NCc3ccc(Cl)cc3)CC2)cc1 (centres undefined),10
O=C(CSc1c2c(nc3ccccc13)CCCC2)Nc1cccc(Cl)c1,3
COC(=O)c1cccc2c1NC(C(=O)O)C1CC=CC21 (centres undefined),0
COc1ccc(C)cc1Nc1nc(C)nc2sc3c(c12)CCCC3,i
CC(C)CCn1c(CN(C)Cc2ccccc2)nc2c1c(=O)n(C)c(=O)n2C,i
CCN(Cc1ccccc1)C(=O)C(CC(C)C)NS(=O)(=O)c1ccc2c(c1)CCN2C(C)=O (centres undefined),i
COc1ccc(Oc2c(C(F)(F)F)oc3cc(OC(C)C(=O)OC(C)C)ccc3c2=O)cc1 (centres undefined),i
CCCCc1c(C)c(C#N)c2[nH]c3ccccc3n2c1=O,7
O=C(CN1C(=O)C2C3C=CC(CC3)C2C1=O)Nc1nccs1 (centres undefined),i
COc1cc(C2C(C(=O)OC3CCCCC3)=C(C)NC3=C2C(=O)CC(C)(C)C3)ccc1OCc1ccccc1 (centres undefined),i
COc1ccccc1-c1c(C(F)(F)F)oc2c(CN3CCCC3)c(O)ccc2c1=O,i
CC(=O)Nc1ccc(S(=O)(=O)NCC2CCC(C(=O)N3CCCC3)CC2)cc1 (centres undefined),i
CCOC(=O)c1cc2c(=O)n3ccccc3nc2n(CC(C)C)c1=NC(=O)c1cc(C)cc(C)c1,18
CCOc1cc(C2C(C(=O)OC3CCCCC3)=C(C)NC3=C2C(=O)CC(c2ccccc2)C3)cc(Br)c1O (centres undefined),i
O=C(Nc1ccc(Br)cc1)C12CC3CC(C1)CC(n1cncn1)(C3)C2,7
CC(=O)N1CCc2cc(S(=O)(=O)NC(C(=O)Nc3cc(C)ccn3)C(C)C)ccc21 (centres undefined),i
CCc1ccc(NC(=O)C2CCC(CNS(=O)(=O)c3cccs3)CC2)cc1 (centres undefined),i
CC(=O)N1CCc2cc(S(=O)(=O)NC3CCCc4ccccc43)ccc21 (centres undefined),1
CCCCCCCCOC(=O)c1c(C)oc2ccc(NS(=O)(=O)c3ccc4c5c(cccc35)C(=O)N4)cc12,1
O=C(c1cc(N2C(=O)C3C4CCC(C4)C3C2=O)ccc1Cl)N1CCCCCC1 (centres undefined),i
Cc1[nH]nc2c1C1(CCCCC1)C(C#N)=C(N)O2,i
CCOC(=O)C1C(=O)C=C(c2ccc(C)cc2)CC1c1ccc(OC)c(OC)c1 (centres undefined),5
Cc1ccc(-n2cc3c(c(C#N)c2=N)CC(C)(C)CC3=O)cc1,i
CC(=O)N1CCCc2cc(S(=O)(=O)NC(C(=O)NC3CCCCC3)C(C)C)ccc21 (centres undefined),i
O=C(CSc1c2c(nc3ccccc13)CCCC2)N1CCCC1,11
SMILES,FPR binding
CCCCn1c(CN2CCN(C(=O)OCC)CC2)nc2c1c(=O)n(C)c(=O)n2C,i
CCOCCOC(=O)C1=C(C)NC2=C(C(=O)C(C(=O)OC)C(C)C2)C1c1ccc(C)o1 (centres undefined),28
CCOC(=O)C1=C(C)NC2=C(C(=O)C(C(=O)OC)C(C)C2)C1c1ccc2c(c1)OCO2 (centres undefined),3
CCN(CC)CCn1c(NC(=O)C2CCCCC2)nc2ccccc21,i
CCCCCOC(=O)c1c(C)oc2ccc(NS(=O)(=O)c3ccc(Cl)c([N+](=O)[O-])c3)cc12,1
COc1ccccc1CNC(=O)C1CCN(S(=O)(=O)N2CC(C)CC(C)C2)CC1 (centres undefined),i
COC(=O)C1C(=O)C2=C(CC1C)NC(C)=C(C(=O)OC1CCCCCC1)C2c1cccs1 (centres undefined),4
